Yeast UUG start: alters start codon recognition fidelity in yeast. S. cerevisiae UUG-firefly luciferase reporter, luminescence/redox ratio. activity score, % at 18.7 µM. 0.13% of 350,000 active. AID 602363;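 active = replicate mean at a twofold rise or more, about +100% in these data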;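 note: firefly luciferase made from a UUG start codon reports start codon fidelity; reporter light over untreated wells divided by growth signal over untreated wells; some hits fall short of that in this replicate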
* marks the source's active call; other numbers are inactive results.

no.	Yeast UUG start	mol
1	68	COc1ccc(C#Cc2ccc3c(c2)[C@@H]2[C@@H](CCN2S(=O)(=O)c2ccccc2F)[C@@H](CO)N3C)cc1
2	11	Cc1noc(C)c1NC(=O)N(C)C[C@H]1Oc2c(NC(=O)c3ccc(-c4nccs4)cc3)cccc2C(=O)N([C@@H](C)CO)C[C@H]1C
3	-2	CNC[C@H]1Oc2c(NS(=O)(=O)c3ccccc3)cccc2C(=O)N([C@@H](C)CO)C[C@H]1C
4	-13	C[C@H]1CN([C@@H](C)CO)C(=O)c2cc(NC(=O)Nc3ccc(F)cc3)ccc2O[C@@H]1CN(C)S(=O)(=O)c1ccccc1
5	-10	COCC(=O)N1C[C@H]2[C@@H](c3ccccc31)[C@@H](CO)N2Cc1cc(F)ccc1F
6	8	C[C@@H]1CN([C@H](C)CO)C(=O)c2cccc(NS(=O)(=O)c3cn(C)cn3)c2O[C@@H]1CN(C)C
7	-4	CO[C@@H]1CN(C)C(=O)c2ccc(NS(=O)(=O)c3ccccc3)cc2OC[C@H](C)NC[C@@H]1C
8	-4	O=C(Nc1ccccc1)N1CCCCN2[C@H](CO)[C@H](c3ccc(-c4ccccc4)cc3)[C@H]2C1
9	-5	C[C@H]1CN([C@@H](C)CO)C(=O)c2cccc(NS(=O)(=O)c3ccc(F)cc3)c2O[C@@H]1CN(C)Cc1ccc(Cl)c(Cl)c1
10	6	CC(=O)N1C[C@H]2[C@@H](c3ccccc31)[C@@H](CO)N2C(=O)c1ccc(F)cc1
11	0	Cc1cccc(-c2ccc([C@H]3[C@@H](CO)N4CCCCN(C(=O)NC(C)C)C[C@H]34)cc2)c1
12	-14	CN1c2ccc(C3=CCCCC3)cc2[C@@H]2[C@@H](CCN2S(=O)(=O)c2ccccc2)[C@H]1CO
13	-5	CCC(=O)Nc1ccc2c(c1)C(=O)N(C)C[C@@H](OC)[C@H](C)CN(C(=O)C1CC1)[C@H](C)CO2
14	-13	CC(=O)N(C)C[C@H]1[C@H](c2ccc(-c3ccc(F)cc3)cc2)[C@@H](CO)N1C(C)=O
15	0	O=C(c1cccc(F)c1)N1CCCCN2[C@H](CO)[C@@H](c3ccc(-c4ccccc4)cc3)[C@H]2C1
16	-11	Cc1noc(C)c1NC(=O)N(C)C[C@@H]1Oc2ccc(NC(=O)Cn3cnnn3)cc2C(=O)N([C@H](C)CO)C[C@H]1C
17	5	C[C@H]1CN([C@@H](C)CO)C(=O)c2cc(NC(=O)Cc3cn(C)c4ccccc34)ccc2O[C@@H]1CN(C)Cc1ccc2c(c1)OCO2
18	-8	C[C@H]1CN([C@@H](C)CO)C(=O)Cc2cc(NC(=O)c3ccncc3)ccc2O[C@H]1CN(C)C
19	12	O=C(C[C@H]1CC[C@@H]2[C@H](COC[C@H](O)CN2Cc2ccccc2)O1)NCc1ccccc1Cl
20	14	O=C(c1ccc2c(c1)OCO2)N1CCCCN2[C@H](C1)[C@H](c1ccc(-c3ccccc3)cc1)[C@@H]2CO
21	5	C[C@H]1CN([C@@H](C)CO)C(=O)Cc2cc(NC(=O)CCC(F)(F)F)ccc2O[C@H]1CN(C)C
22	31	COc1ccc(C#Cc2ccc([C@@H]3[C@@H](CO)N4CCCCN(C)C[C@@H]34)cc2)cc1
23	-1	Cc1ccc(S(=O)(=O)N(C)C[C@H]2Oc3ccc(N(C)C)cc3CC(=O)N([C@H](C)CO)C[C@H]2C)cc1
24	0	CCCC#Cc1ccc([C@H]2[C@@H](CO)N3CCCCN(S(=O)(=O)c4ccccc4C)C[C@@H]23)cc1
25	18	O=C(c1cccc(F)c1)N1CCCCN2[C@H](CO)[C@H](c3ccc(-c4cccnc4)cc3)[C@H]2C1
26	39	CO[C@H]1CN(C)C(=O)c2cc(NC(=O)C3CCC3)ccc2OC[C@H](C)N(C(=O)NC(C)C)C[C@H]1C
27	-11	CCN(C[C@@H]1[C@@H](c2ccccc2)[C@H](CO)N1C(=O)C1CC1)C(=O)NC1CCCC1
28	4	COc1cccc(-c2ccc3c(c2)[C@H]2[C@H](CCN2S(=O)(=O)c2cn(C)cn2)[C@H](CO)N3)c1
29	-1	O=C(Nc1cc(F)ccc1F)N1CCCCN2[C@H](C1)[C@H](c1ccc(-c3ccccc3)cc1)[C@@H]2CO
30	-8	COCC(=O)N1CCCCN2[C@H](CO)[C@@H](c3ccc(-c4ccccc4)cc3)[C@H]2C1
31	-3	COc1cccc(C#Cc2ccc3c(c2)[C@H]2[C@H](CCN2C(=O)c2ccccc2F)[C@H](CO)N3)c1
32	15	CO[C@@H]1CN(C)C(=O)c2cc(NC(=O)c3ccccc3F)ccc2OC[C@@H](C)N(C(=O)c2ccccc2F)C[C@H]1C
33	18	C[C@H](CO)N1C[C@H](C)[C@@H](CN(C)Cc2ccc3c(c2)OCO3)Oc2ccc(NC(=O)Nc3cccc4ccccc34)cc2CC1=O
34	-3	Cc1ccccc1S(=O)(=O)N1CCCCN2[C@@H](CO)[C@H](c3ccc(-c4cccc(F)c4)cc3)[C@@H]2C1
35	-8	C[C@@H]1CN([C@H](C)CO)C(=O)c2cc(NS(C)(=O)=O)ccc2O[C@@H]1CN(C)C(=O)Nc1ccc2c(c1)OCO2
36	-10	C[C@H]1CN([C@@H](C)CO)C(=O)c2cc(NC(=O)c3ccncc3)ccc2O[C@H]1CN(C)C
37	-9	N#Cc1ccc(-c2ccc3c(c2)[C@@H]2[C@@H](CCN2C(=O)c2ccc4c(c2)OCO4)[C@H](CO)N3)cc1
38	22	CC(C)(O)C#Cc1ccc([C@@H]2[C@H](CO)N3CCCCN(S(C)(=O)=O)C[C@@H]23)cc1
39	14	CCCC#Cc1ccc([C@H]2[C@H]3CN(S(=O)(=O)Cc4ccccc4)CCCCN3[C@H]2CO)cc1
40	9	C[C@@H]1CN([C@H](C)CO)C(=O)c2cccc(NC(=O)NC3CCCCC3)c2O[C@@H]1CN(C)Cc1ccc(-c2ccccc2)cc1

Arranged by molar mass (lowest first): part of the list above.
no.	Yeast UUG start	mol
18	-8	C[C@H]1CN([C@@H](C)CO)C(=O)Cc2cc(NC(=O)c3ccncc3)ccc2O[C@H]1CN(C)C
15	0	O=C(c1cccc(F)c1)N1CCCCN2[C@H](CO)[C@@H](c3ccc(-c4ccccc4)cc3)[C@H]2C1
7	-4	CO[C@@H]1CN(C)C(=O)c2ccc(NS(=O)(=O)c3ccccc3)cc2OC[C@H](C)NC[C@@H]1C
40	9	C[C@@H]1CN([C@H](C)CO)C(=O)c2cccc(NC(=O)NC3CCCCC3)c2O[C@@H]1CN(C)Cc1ccc(-c2ccccc2)cc1
17	5	C[C@H]1CN([C@@H](C)CO)C(=O)c2cc(NC(=O)Cc3cn(C)c4ccccc34)ccc2O[C@@H]1CN(C)Cc1ccc2c(c1)OCO2

Other compounds.
no.	Yeast UUG start	mol
41	-9	O=C(C[C@@H]1CC[C@H]2[C@@H](COC[C@H](O)CN2C(=O)c2ccccc2F)O1)N1CCOCC1
42	1	CCC(=O)N1[C@H](CN(CC)C(=O)c2ccc(F)cc2)[C@H](c2ccccc2)[C@@H]1CO
43	-1	OC[C@@H]1[C@@H](c2ccc(C#CC3CCCC3)cc2)[C@H]2CN(CCC(F)(F)F)CCCCN12
44	26	CNC(=O)C[C@@H]1CC[C@@H]2[C@@H](COc3ccc(NC(=O)Nc4cccc(C)c4)cc3C(=O)N2C)O1
45	-3	O=C(C1CCOCC1)N1C[C@H]2[C@@H](c3ccccc31)[C@H](CO)N2Cc1ccccc1
46	-10	CO[C@@H]1CN(C)C(=O)c2cc(NC(=O)NC3CCCCC3)ccc2OC[C@H](C)N(CC2CC2)C[C@@H]1C
47	-4	CN1CCCCN2[C@H](CO)[C@H](c3ccc(-c4ccc(F)cc4)cc3)[C@@H]2C1
48	-25	Cc1cccc(-c2ccc([C@@H]3[C@@H](CO)N4CCCCN(CCC(F)(F)F)C[C@H]34)cc2)c1
49	1	CC(C)NC(=O)N(C)C[C@@H]1Oc2ccc(NC(=O)Cc3ccccc3)cc2CC(=O)N([C@@H](C)CO)C[C@@H]1C
50	4	COc1cccc(NC(=O)C[C@H]2CC[C@@H]3[C@@H](COc4ccc(NC(=O)c5ccccc5F)cc4C(=O)N3C)O2)c1
51	-8	COc1cccc(-c2ccc3c(c2)[C@@H]2[C@@H](CCN2C(=O)c2ccc4c(c2)OCO4)[C@H](CO)N3C)c1
52	-35	COc1ccccc1S(=O)(=O)N1CC[C@@H]2[C@H]1c1cc(-c3ccccc3F)ccc1N[C@@H]2CO
53	27	O=C(C1CCCC1)N1C[C@H]2[C@@H](c3ccccc31)[C@H](CO)N2C(=O)c1ccccc1
54	-2	O=C(NC[C@@H]1[C@@H](c2ccccc2)[C@H](CO)N1C(=O)Cc1ccncc1)C1CCC1
55	-11	CN1c2ccc(C#Cc3cccnc3)cc2[C@H]2[C@H](CCN2S(=O)(=O)c2ccc(F)cc2)[C@@H]1CO
56	-4	CO[C@H]1CN(C)C(=O)c2ccc(NC(=O)C3CCC3)cc2OC[C@H](C)N(Cc2ccncc2)C[C@H]1C
57	1	C[C@@H]1CN([C@H](C)CO)C(=O)c2cccc(NC(=O)C3CCOCC3)c2O[C@@H]1CN(C)Cc1ccc(Cl)c(Cl)c1
58	-11	O=C(Cc1ccncc1)N1CC[C@@H]2[C@H]1c1cc(Br)ccc1N[C@@H]2CO
59	7	CC(=O)N1CCCCN2[C@H](C1)[C@@H](c1ccc(-c3cccc(C(=O)N(C)C)c3)cc1)[C@@H]2CO
60	-18	O=C(Nc1ccccc1Cl)N1[C@H](CO)[C@@H]2c3ccccc3NC[C@@H]21
61	-13	CC(C)NC(=O)N1C[C@H]2[C@@H](c3ccccc31)[C@H](CO)N2Cc1ccc(Cl)cc1
62	12	COc1ccc(CN(C)C[C@H]2Oc3ccc(NC(=O)Nc4ccc(F)cc4)cc3CC(=O)N([C@@H](C)CO)C[C@@H]2C)cc1
63	7	C[C@@H]1CN([C@@H](C)CO)C(=O)Cc2cc(NC(=O)Cn3cnnn3)ccc2O[C@@H]1CN(C)Cc1ccc(Cl)c(Cl)c1
64	11	COCC(=O)N1CC[C@@H]2[C@@H](CO)N(C)c3ccc(-c4ccc(F)cc4)cc3[C@@H]21
65	32	O=C(CC(F)(F)F)N1C[C@@H]2[C@H](c3ccccc31)[C@H](CO)N2C(=O)C1CCOCC1
66	10	C/C=C/c1ccc([C@@H]2[C@@H](CN(C)C(=O)CN(C)C)N(C(C)=O)[C@H]2CO)cc1
67	-18	Cc1cc(C(=O)Nc2cccc3c2O[C@@H](CN(C)Cc2ccc(C(=O)Nc4ccccc4N)cc2)[C@@H](C)CN([C@H](C)CO)C3=O)n(C)n1
68	9	COc1ccc(S(=O)(=O)N(C)C[C@@H]2Oc3ccc(NC(=O)CCN4CCOCC4)cc3C(=O)N([C@H](C)CO)C[C@@H]2C)cc1
69	-16	COc1cccc(-c2ccc3c(c2)[C@H]2[C@H](CCN2C(=O)Cc2ccncc2)[C@H](CO)N3C)c1
70	8	C[C@H](CO)N1C[C@H](C)[C@H](CN(C)C)Oc2ccc(NS(=O)(=O)c3cccs3)cc2CC1=O
71	12	O=C(CC1CC1)Nc1ccc2c(c1)[C@H]1C[C@@H](CC(=O)N3CCc4ccccc4C3)O[C@@H](CO)[C@H]1O2
72	-4	Cc1ccc(S(=O)(=O)Nc2ccc3c(c2)C(=O)N([C@@H](C)CO)C[C@H](C)[C@H](CN(C)Cc2ccc4c(c2)OCO4)O3)cc1
73	0	C[C@@H]1CN([C@H](C)CO)C(=O)Cc2cc(NS(=O)(=O)c3ccc(Cl)cc3)ccc2O[C@@H]1CN(C)C(=O)NC1CCCCC1
74	-10	CC(C)NC(=O)Nc1ccc2c(c1)C(=O)N([C@@H](C)CO)C[C@@H](C)[C@H](CN(C)Cc1ccncc1)O2
75	-5	COc1ccccc1CN1[C@@H](CO)[C@@H]2c3ccccc3N(C(=O)C3CCOCC3)C[C@@H]21
76	-10	C[C@@H]1CN([C@@H](C)CO)C(=O)c2cccc(NC(=O)c3nc4ccccc4s3)c2O[C@@H]1CN(C)C(=O)Nc1cccc2ccccc12
77	1	CN1C(=O)c2cc(NS(=O)(=O)c3cccc(F)c3)ccc2OC[C@H]2O[C@H](CC(=O)O)CC[C@@H]21
78	3	O=C(Nc1ccccc1F)N1CCCCN2[C@@H](CO)[C@H](c3ccc(C4=CCCC4)cc3)[C@@H]2C1
79	11	C[C@@H]1CN([C@@H](C)CO)C(=O)c2cccc(N(C)C)c2O[C@@H]1CN(C)S(=O)(=O)c1ccc(F)cc1
80	10	C[C@@H]1CN([C@@H](C)CO)C(=O)c2cc(NC(=O)Cc3cn(C)c4ccccc34)ccc2O[C@@H]1CN(C)C
81	0	Cc1noc(C)c1S(=O)(=O)Nc1ccc2c(c1)C(=O)N([C@H](C)CO)C[C@@H](C)[C@@H](CN(C)S(=O)(=O)c1ccccc1)O2
82	-7	CCNC(=O)C[C@@H]1CC[C@H]2[C@@H](COC[C@H](O)CN2C(=O)Nc2ccc3c(c2)OCO3)O1
83	11	CCCN1[C@@H]2Cn3c(ccc(-c4cccnc4)c3=O)[C@H]1[C@@H](C(=O)NC1CCCC1)[C@@H]2CO
84	-3	O=C(c1ccc(F)cc1)N1CCCCN2[C@H](CO)[C@H](c3ccc(-c4ccc(F)cc4)cc3)[C@H]2C1
85	-16	C[C@H]1CN([C@@H](C)CO)C(=O)Cc2cc(NC(=O)Nc3ccc4c(c3)OCO4)ccc2O[C@H]1CN(C)Cc1ccncc1
86	-2	C[C@H]1CN([C@@H](C)CO)C(=O)c2cc(NS(=O)(=O)c3cn(C)cn3)ccc2O[C@H]1CN(C)C

Reformatted: results already given
55	CN1c2ccc(C#Cc3cccnc3)cc2[C@H]2[C@H](CCN2S(=O)(=O)c2ccc(F)cc2)[C@@H]1CO
  Yeast UUG start: -11

47	CN1CCCCN2[C@H](CO)[C@H](c3ccc(-c4ccc(F)cc4)cc3)[C@@H]2C1
  Yeast UUG start: -4

Source: PubChem

Some of the compounds tested, so the mix of outcomes need not match the whole.
